Assay outcomes from PubChem BioAssay.
YjeE inh: displaces an ADP probe from E. coli YjeE (TsaE); P0AF67; purified YjeE, fluorescence polarisation of a bound ADP probe; Potency, µM; 71,000 compounds, 0.05% hits; AID 605; active = well fitted falling curve; inconclusive = weaker or top-dose-only fall, or a rising curve; inactive = flat or poorly fitted curve;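 also: top concentration of the series not given in the record; excess ADP was the control for the full effect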
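Fluorescence polarization of a BODIPY Texas Red–ADP probe (2 uM) bound to purified YjeE (10 uM) was read after 15 min room-temperature incubation with compounds. Loss of polarization marks inhibitors; ADP serves as titrated control.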
Bst PK mod: pyruvate kinase (B. stearothermophilus) modulation; partly purified Bacillus stearothermophilus pyruvate kinase, luminescence ATP production; ribose 5-phosphate activator present at AC10; Potency, µM; 51,000 compounds, 1.2% hits; AID 361; in the data active means potency below about 11 µM; inconclusive means mostly about 12 µM to 25 µM; inactive means weaker than that;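 the screen sought inhibitors and activators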;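 also: potency is read from the fitted curve at half-maximal effect; scaled between full activation by ribose 5 phosphate and full inhibition by luteolin; about four in five hits inhibit and the cells do not say which; series up to 57 µM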
* marks the source's active call; other numbers are inactive results; i = inactive; ? = inconclusive; . = no result given. Only part of the results is shown, so the mix of outcomes need not match the whole.

YjeE inh,Bst PK mod,SMILES
i,>57,COc1ccc(S(=O)(=O)CCC(=O)Nc2c(C)n(C)n(-c3ccccc3)c2=O)cc1
i,>57,COc1ccc(CCNC(=O)C2CCN(Cc3nc(-c4ccccc4C)oc3C)CC2)cc1OC
i,>57,CCC(c1nnc(SCc2nc3ccccc3s2)n1Cc1ccccc1)N(C)C (centres undefined)
i,>57,O=C(Nc1ccccc1)c1ccc(S(=O)(=O)NCc2ccco2)cc1
i,>57,COC(=O)CNS(=O)(=O)c1ccc(Cc2ccc(S(=O)(=O)NCC(=O)OC)cc2)cc1
i,>57,Cc1cc(CN2C(=O)c3ccccc3C2=O)no1
i,.,Cc1cccc(Cn2c(N(C)CCO)nc3c2c(=O)[nH]c(=O)n3C)c1
i,>57,CCC(=O)OC1CSc2nc3ccccc3n2C1 (centres undefined)
i,>57,CCc1nnc(NC(=O)CSc2nnc(-c3ccoc3C)n2CC(C)C)s1
i,>57,COc1cc(C2C(C#N)=C(N)Oc3n[nH]c(-c4ccccn4)c32)cc(OC)c1OC (centres undefined)
i,>57,Cc1cc(=O)n2nc(-c3ccccc3)sc2c1C#N
i,>57,CN(C)S(=O)(=O)c1ccc(/C(O)=C2/C(=O)C(=O)N(Cc3cccnc3)C2c2ccco2)cc1 (centres undefined)
i,.,O=C(O)[C@@H]1[C@H](C(=O)O)[C@H]2C(=O)C=C[C@H]1N2Cc1ccccc1
i,>57,CCCOP(=O)(c1ccc(N(C)C)cc1)C(O)c1ccccc1OC (centres undefined)
i,>57,Cc1cc(NC(=O)COc2ncnc3sc(C)c(C)c23)no1
i,.,O=C(O)CCCC(=O)OCCCCc1cccs1
i,?,CS(=O)(=O)N(Cc1ccco1)Cc1ccccc1Cl
i,>57,CCCOc1ccc(N2C(=O)CC(N3CCN(c4nc5ccccc5s4)CC3)C2=O)cc1 (centres undefined)
i,>57,CCOC(=O)N1CCN(C(=O)CSc2nnc(CNC(=O)c3c(F)cccc3Cl)o2)CC1
i,>57,CCCN(CCC)c1nc(C)cc(C(C#N)c2nc3ccccc3o2)n1 (centres undefined)
i,.,CC(C)(C)SCCNC(=O)CN1C(=O)c2ccccc2S1(=O)=O
i,>57,COc1ccc(N2CCN(CC(=O)Nc3cc4c(cc3C(C)=O)OCO4)CC2)cc1
i,.,NC1(C(=O)O)CC(C(=O)O)C1 (centres undefined)
i,>57,CCC1(CC)C(=O)NC(=O)NC1=Nc1cccc(OC)c1
i,.,CCOCCCNC(=O)CN1C(=O)CSc2ccccc21
i,>57,O=C1CCc2cc(S(=O)(=O)N3CCN(c4cccc(Cl)c4)CC3)ccc2N1
i,.,O=C(Nc1ccccc1)N1CCC2(CC1)CCN(C(=O)c1cccc(F)c1)CC2
i,>57,COc1ccc(C2C(C(=O)NC(C)C)c3ccccc3C(=O)N2C)cc1OC (centres undefined)
i,>57,CC(C)NC(=O)C(C)n1cccc1C(=O)c1ccccc1 (centres undefined)
i,.,Cc1ccccc1-c1nc(CS(=O)(=O)CC(=O)NCCCN2CCCC2)c(C)o1
i,>57,Cn1c(=O)c2c(nc(SCC(=O)O)n2Cc2cccc(C(F)(F)F)c2)n(C)c1=O
i,>57,Cn1cnnc1SCC(=O)N1CCC(Cc2ccccc2)CC1
i,>57,O=S(=O)(Nc1cccc2cn[nH]c12)c1ccc(F)cc1
i,>57,Cn1c(=O)c2cn3c(c2n(C)c1=O)C(c1ccccc1)CC(c1ccccc1)=N3 (centres undefined)
i,>57,O=C(CCNS(=O)(=O)c1cccc2nsnc12)N1CCc2ccccc21
.,>26,COc1cccc(C2/C(=C(\O)c3ccc4c(c3)OCCO4)C(=O)C(=O)N2CCN(C)C)c1 (centres undefined)
.,>26,Cc1cc(=O)oc(C)c1C(=O)NC12CC3CC(CC(C3)C1)C2
i,>57,CCOC(=O)N1CCN(S(=O)(=O)c2cc(Br)cc3c2N(C(=O)CC)CC3)CC1
i,.,COc1ccc(-n2c(=O)c(-c3ccc(Cl)cc3)nc3cncnc32)cc1
i,.,COc1ccc(CCNC(=O)c2cc(C(C)C)on2)cc1OC
i,.,CN1CCN(CCCNC(=O)c2cc3c(=O)oc4ccccc4c3s2)CC1
i,>57,O=C(NCc1ccc2c(c1)OCO2)c1cccc(S(=O)(=O)N2CCOCC2)c1
i,>57,COC(=O)c1ccc(N2CCN(C)CC2)c(NC(=O)COc2ccc(OC)cc2)c1
i,.,O=C1CC(=O)CC(c2ccccc2Cl)C1
i,.,c1cc2c3c(c1)ccc1cccc(c13)C2
i,.,Cn1c(CN2CCCC2)nc2cc(NC(=O)Nc3ccccc3)ccc21
i,.,O=C(NCc1ccco1)c1cnc2ccccn2c1=O
i,>57,Cc1cccc2nc(Cn3c(=O)n(CCC(=O)NCc4ccco4)c(=O)c4sccc43)cc(=O)n12
i,.,COc1cc(C(=O)N2CCN=C2c2ccccc2)cc(OC)c1OC
i,>57,CCOC(=O)Cc1nc2ccccc2[nH]1
i,>57,O=C(NC1CCCC1)c1cnn2c(C(F)(F)F)cc(-c3ccc4c(c3)OCO4)nc12
i,>57,Cc1ccc2[nH]c(=O)c(C(c3nnnn3C(C)(C)C)N(Cc3ccco3)CC3CCCO3)cc2c1 (centres undefined)
.,>26,CN(C)c1nc2n(c(=O)n1)C(C#N)CS2 (centres undefined)
i,>57,O=S(=O)(c1ccccc1)c1nc(-c2ccco2)oc1NCCCN1CCOCC1
i,.,Cc1ccc(-c2cc(C(F)F)n3ncc(C(=O)N4CCN(c5ccccn5)CC4)c3n2)cc1
i,>57,COc1ccc(S(=O)(=O)NC(CC(=O)NCC2CCCO2)c2ccco2)cc1 (centres undefined)
i,.,CCOc1ccc(Cn2nnc(C(=O)Nc3ccc(OC)cc3OC)c2N)cc1
i,.,O=C(Cn1cnc2c(nnn2-c2ccccc2)c1=O)N1CCOCC1
i,>57,Cc1cc(C)cc(C(=O)n2cnnc2N)c1
i,.,COc1cccc(-c2nc(CS(=O)CC(=O)NC3CC3)c(C)o2)c1 (centres undefined)

Later entries:
YjeE inh,Bst PK mod,SMILES
i,>57,COC(=O)C1=C(CSCc2ccco2)NC(=O)NC1c1cc(C)ccc1C (centres undefined)
i,.,Cc1ccc(C2CC(c3ccco3)n3ncnc3N2)cc1 (centres undefined)
.,>26,CCC(=O)Nc1nc2ccccc2n1Cc1ccccc1C
i,>57,CCN(CCO)c1ccc(-n2c(N)c(C(=O)OC)c3nc4ccccc4nc32)cc1
i,.,Oc1ccccc1/C=N/c1c(-c2ccco2)nc2ccccn12
i,>57,O=C(c1cnn2c(C(F)(F)F)cc(-c3ccc4c(c3)OCO4)nc12)N1CCCC1
i,>57,Cc1noc(/C=C/N(C)C)c1S(=O)(=O)NC1CCCCC1
i,>57,Cc1cc(=O)n2nc(N3CCCC3C(=O)NCCCN3CCCCC3)sc2n1 (centres undefined)
i,.,CCN1CCN(C(=O)c2cc3cc4cc(OC)ccc4nc3s2)CC1
i,>57,CC(C)Cc1nnc(NC(=O)CSc2nc(=O)cc(N)n2-c2ccccc2)s1
i,>57,COc1ccc(N2CC(C(=O)NCCC3=CCCCC3)CC2=O)cc1 (centres undefined)
i,>57,Cc1cc(C(=O)CSc2nnc(-c3ccccc3F)o2)c(C)n1Cc1cccs1
i,.,COC(=O)[C@@]1(Cc2ccc(OC)cc2)[C@H]2c3cc(C(=O)N4CCCC4)n(Cc4ccsc4Br)c3C[C@H]2CN1C(=O)c1ccccc1
i,>57,CC1(C)NC(C)(C)C(O)(C(N)=O)C1=O (centres undefined)
i,>57,Clc1ccc(-n2nnnc2Sc2ncnc3sccc23)cc1
i,>57,COc1ccc(CCNC(=O)c2ccc(CN3CCOCC3)cc2)cc1
i,.,CC(=O)N1CC=CC1(CC(C)C)C(=O)NCc1ccccn1 (centres undefined)
i,>57,CCCNC(=O)NC(=O)CSc1nc2ccccc2n1CC(C)C
i,.,CC(=O)N1CCC2(CC1)CN(C(=O)Nc1cccc(C#N)c1)C2
i,>57,CCOc1ccccc1CN1C(=O)c2ccccc2C1C(=O)NCC1CCCO1 (centres undefined)

Exported with each value named: four of the compounds above.
Cc1noc(/C=C/N(C)C)c1S(=O)(=O)NC1CCCCC1
- YjeE inh: i
- Bst PK mod: >57

CCN1CCN(C(=O)c2cc3cc4cc(OC)ccc4nc3s2)CC1
- YjeE inh: i
- Bst PK mod: .

O=C(c1cnn2c(C(F)(F)F)cc(-c3ccc4c(c3)OCO4)nc12)N1CCCC1
- YjeE inh: i
- Bst PK mod: >57

Cc1cc(C(=O)CSc2nnc(-c3ccccc3F)o2)c(C)n1Cc1cccs1
- YjeE inh: i
- Bst PK mod: >57

The list goes on:
YjeE inh,Bst PK mod,SMILES
i,>57,Cc1ncoc1C(=O)Nc1nccs1
i,.,COc1ncc2nc(CCc3ccccc3)c(=O)n(CCC#N)c2n1
i,.,CCCn1c(-c2ccc(F)cc2)nc2c(NCC3CCCN3CC)nc(C)nc21 (centres undefined)
i,>57,CCOC(=O)c1[nH]c(C)c(C(=O)NCCCN2CCOCC2)c1C
i,>57,CCOC(=O)c1nnn(CC(=O)Nc2cccc(Cl)c2C)c1C(=O)OCC
i,>57,Cc1ccc(S(=O)(=O)NCCCN2CCOCC2)cc1C
i,>57,CSc1ccccc1NC(=O)CCn1c(=O)sc2ccccc21
i,>57,O=C(c1ccco1)N1CCN(S(=O)(=O)Cc2ccc(Cl)cc2)CC1
i,>57,N#CCCn1nnc2ccccc21
i,.,Cc1nonc1NC(=O)c1ccccc1Br
i,>57,COc1cc2cc(CN(Cc3cccnc3)C(=O)NCc3ccccc3)c(=O)[nH]c2cc1OC
.,>26,Cn1c(Cl)cnc1C1CC(=O)c2cc(Cl)ccc2O1 (centres undefined)
i,.,CCN(CCNC(=O)Cn1c(=O)sc2ccccc21)c1ccccc1
i,>57,CC1Cc2ccccc2N1C(=O)CSc1nnc2c(n1)[nH]c1ccccc12 (centres undefined)
i,>57,COc1ccc(NC(=O)c2c(C)oc3c2CCCC3)cc1
i,>11,Cc1cc2c(C)cc(=O)oc2c2c1NCCC2
i,.,Brc1cc(Br)c2ncnc(N3CCCCC3)c2c1
i,>57,Cc1cc(OCc2nnc(SCC(=O)OC3CCCCC3)o2)ccc1Cl
i,>57,O=C(NC1C2CC3CC(C2)CC1C3)C1CC1 (centres undefined)
i,>57,CCOc1ccc(NC(=O)C(C)O)c(NS(=O)(=O)c2ccc(CCNC(C)=O)cc2)c1 (centres undefined)
i,.,Brc1ccc([C@H]2CN3CCSC3=N2)cc1
i,>57,O=c1cc(CN2CCN(c3ccccc3)CC2)c2c(ccc3ccccc32)o1
i,>57,Cc1ccc(N2C(=O)C(Cl)=C(Nc3c(C)n(C)n(-c4ccccc4)c3=O)C2=O)cc1
i,.,CC(=O)NC1C(=O)N=C(SCc2ccccc2)NC1=O (centres undefined)
i,>57,CCn1cc(C(=O)Nc2ccc(C(=O)N3CCCC3)cc2)c(=O)c2ccc(C)nc21
i,i,O=C(Nc1nccs1)c1ccc(NC(=O)c2ccco2)cc1
i,>57,COc1ccccc1-c1nc(C(F)(F)F)c(OC)o1
i,>57,C=CCn1c(SCC(=O)NCC2CCCO2)nnc1C1CCCCC1 (centres undefined)
i,>57,O=C(COc1nncc2ccccc12)NCCC1=CCCCC1
i,>57,COC(=O)c1ccc(CSc2nc(C)nc3sc(C)c(C)c23)o1
i,.,CCOn1c(=O)c(=O)n(OCc2ccccc2)c2ccccc21
i,>57,CC1=C(C(=O)OC(C)C)C(c2cccs2)N2C(=O)CCSC2=N1 (centres undefined)
i,.,Cc1ccc(C(c2sc3ncnn3c2O)N2CCC(C)CC2)cc1 (centres undefined)
i,.,CCC(=O)Nc1nc2c(OC)ccc(C)c2s1
i,.,O=C(COc1ccc(Cl)cc1Cl)NCCCN1CCOCC1
i,>57,Cc1onc(-c2ccccc2)c1C(=O)OCC(=O)Nc1ccc2c(c1)OCO2
i,.,CCOC(=O)C1CCN(S(=O)(=O)c2cn(C)c(=O)n(C)c2=O)CC1
i,>57,COc1ccc(OC(=O)CCCN2C(=O)c3ccccc3C2=O)cc1
i,>11,O=C(Nc1cccc2nsnc12)c1cccs1
i,>57,CCC1Oc2ccc(C)cc2N(CC(=O)NCc2cccc(OC)c2)C1=O (centres undefined)

6 compounds drawn at random from the list so far, as already listed:
YjeE inh,Bst PK mod,SMILES
i,>57,Cc1cc(=O)n2nc(-c3ccccc3)sc2c1C#N
i,>57,O=C1CCc2cc(S(=O)(=O)N3CCN(c4cccc(Cl)c4)CC3)ccc2N1
i,.,NC1(C(=O)O)CC(C(=O)O)C1 (centres undefined)
i,>57,CCn1cc(C(=O)Nc2ccc(C(=O)N3CCCC3)cc2)c(=O)c2ccc(C)nc21
i,>57,COc1ccc(C2C(C(=O)NC(C)C)c3ccccc3C(=O)N2C)cc1OC (centres undefined)
i,>57,CCC1Oc2ccc(C)cc2N(CC(=O)NCc2cccc(OC)c2)C1=O (centres undefined)

Remaining list, next part
YjeE inh,Bst PK mod,SMILES
i,.,CC1Cn2c(nnc2-c2cccc(N)c2)S1 (centres undefined)
i,>57,CCOC(=O)C(CC)n1cnc2sc3c(c2c1=O)CCC3 (centres undefined)
i,.,Cc1cccc(N2CCN(C(=O)c3cc4c(=O)n(C)c5ccccc5c4n3C)CC2C)c1 (centres undefined)
i,>57,Cc1cc(C)n(C(=O)CNC(=O)c2ccco2)n1
i,>57,C=CCn1c(SCC(=O)Nc2c(C)cccc2C)nnc1-c1cnccn1
i,>57,CCCNC(=O)COC(=O)c1ccc(S(=O)(=O)N2CCCCCC2)cc1
